Screens: PubChem BioAssay, Southern Research Institute
V. cholerae motility – Vibrio cholerae motility inhibitors, OD read-out (AID 588778); Vibrio cholerae motility, OD read-out; higher % means a stronger effect; test concentration not given here; primary cut-off and reference of the scale not given here; strong numbers were not always called active; one-dose inhibition, %; IC50 in µg/mL for titrated hits; 10,000 tested, under 10 active; in the data active means confirmed in a dose series
V. cholerae motility viability – further read-out of V. cholerae motility, marked with its call; inhibition, %; measured here: bacterial viability at 10 ug/mL;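 higher means fewer living bacteria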
* marks the source's active call; other numbers are inactive results. An excerpt, so the mix of outcomes need not match the whole.

SMILES	V. cholerae motility	V. cholerae motility viability
O=c1cc(-c2ccc(F)cc2)c2c([nH]1)Oc1c(nc(-c3ccccc3)[nH]c1=O)O2	10%	1
Cc1ccc(-c2[nH]c(=S)[nH]c(=O)c2C#N)cc1	6%	1
COc1ccc(OC)c(-c2csc(NC(=O)C3CCC3)n2)c1	4%	3
O=C(CCc1ccccc1)n1nc(-c2ccccc2)nc1NCc1ccco1	2%	7
Cc1cc(C)n(-c2cc(N3CCN(S(=O)(=O)Cc4ccccc4)CC3)ccc2[N+](=O)[O-])n1	8%	2
Clc1ccc(OCc2nc3ccccc3n2CC2CC2(Cl)Cl)cc1 (centres undefined)	3%	-1
O=C(Cc1cccs1)N1CCC2(CC1)OCCO2	2%	-3
N#Cc1c(Nc2ccc(F)cc2)sc2c(O)cc(=O)[nH]c12	0%	-3
O=C1c2ccccc2NC2(C(=O)Nc3ccccc32)N1CCOc1ccccc1 (centres undefined)	-10%	-7
O=C(CSc1nc2ccccc2o1)Nc1ncc(Cc2ccc(Cl)cc2Cl)s1	-9%	-1
CCc1ccccc1-n1c(-c2ccncc2)n[nH]c1=S	-6%	-2
Cn1c(SCC(=O)Nc2ccc3c(c2)oc2ccccc23)nc2ccccc2c1=O	1%	6
CCOC(=O)c1sc(NNC(=O)C(CC)c2ccccc2)nc1C (centres undefined)	8%	22
COc1cc(-c2ccc(NS(C)(=O)=O)c(OC)c2)ccc1NS(C)(=O)=O	-1%	30
CCC(C)c1ccc(NC(=O)CSc2nc3ncccc3[nH]2)cc1 (centres undefined)	31%	4
CCOC(=O)C1CCCN(S(=O)(=O)c2ccc(Br)s2)C1 (centres undefined)	2%	21
Cc1cccc(OCCSc2cc(C)nc(N)n2)c1	-5%	-3
O=C(NC(=S)Nc1ccc(O)c(-c2nc3ccccc3s2)c1)c1cccs1	13%	28
O=C(CCN1C(=O)c2cccc3cccc(c23)C1=O)N1CCN(c2ccccc2F)CC1	6%	34
N#Cc1nc(COc2ccccc2F)oc1N1CCN(C(c2ccccc2)c2ccccc2)CC1	-11%	-9
COc1ccc(CNCCC(c2ccc(F)cc2)c2ccco2)cc1OC (centres undefined)	18%	6
Cc1ccc(S(=O)(=O)N(Cc2ccccc2)CC(C)C(=O)O)cc1 (centres undefined)	2%	32
CCCCOc1c(Br)cc(C2NC(=S)NC(C)=C2C(=O)OC)cc1OC (centres undefined)	2%	2
Cc1cc(Br)cc(C)c1OC(=O)C1CCCCC1	4%	14
N#Cc1cc(Nc2ccc3c(c2)CCC3)c([N+](=O)[O-])cc1C#N	48%	4
SMILES	V. cholerae motility	V. cholerae motility viability
O=C(NCc1cccnc1)C1CCN(C(=O)c2ccc(Cl)cc2Cl)CC1	5%	0
O=C(NCC1OCCc2ccccc21)C(=O)Nc1ccccc1 (centres undefined)	16%	2
COc1ccccc1NS(=O)(=O)c1ccccc1F	5%	0
CCCc1cc(=O)oc2cc(C)c(CN3CCCC3)c(O)c12	-2%	-5
Cc1nnc(SCc2nc(C(c3ccccc3)c3ccccc3)no2)n1-c1ccccc1	6%	0
O=C(Nc1cccc(C(F)(F)F)c1)Nc1ccc2c(c1)OCCO2	-4%	-8
O=C(Nc1cc(C(F)(F)F)ccc1Cl)c1ccc2nc[nH]c2c1	-31%	-13
O=C(c1ccc(Br)cc1)c1ccc(N2CCCCC2)c([N+](=O)[O-])c1	-10%	-7
COC(=O)c1ccc(CSc2nnc(N)s2)o1	-3%	-8
CCSc1nnc(NC(=O)c2csc3ccccc23)s1	-5%	-5
COc1cc([N+](=O)[O-])cc2sc(N)nc12	34%	5
O=C(Nc1cccc(Br)c1)Oc1ccccc1	-8%	-6
Cc1cc(C)n2c(SCC(=O)Nc3nccs3)nnc2n1	-6%	-1
CCOC(=O)C1=C(C)NC(C)=C(C(=O)OCC)C1/C=C/c1ccccc1OC	-20%	-5
Cc1ccc(N2C(=O)c3oc4ccc(Cl)cc4c(=O)c3C2c2cccc(Cl)c2)nc1 (centres undefined)	2%	0
Cc1cnn(C(=O)c2cc(C)oc2C)c1	13%	11
Cc1nc2ccccc2c2c1C(=O)N(CCC1=CCCCC1)C2=O	-15%	-2
Cc1nc(NC(=O)c2sc3ccccc3c2Cl)ccc1Br	9%	2
O=C(Nc1nnc(-c2cccc(Br)c2)s1)C1CCCCC1	-2%	-2
O=C(NC1=NCCS1)c1cc2c(s1)CCCCCC2	18%	4
O=C1c2ccccc2NC(c2ccccc2)C1c1ccccc1 (centres undefined)	-25%	-8
COC(=O)c1cc(SC#N)ccc1N	30%	26
Cc1ccc(C(=O)CS(C)(=O)=O)cc1	14%	21
O=C(CCSc1ccccc1)Nc1cccc(Cl)c1Cl	6%	15
CCC(C)Oc1ccc(C(=O)NC(=S)Nc2ccc3c(c2)COC3=O)cc1 (centres undefined)	-4%	-6
SMILES	V. cholerae motility	V. cholerae motility viability
COc1ccc(NC(=O)C(C)Sc2nc(N)cc(N)n2)cc1 (centres undefined)	9%	-1
O=C(CCSc1nnc2ccccn12)Nc1nc(-c2ccccc2)ns1	-9%	-6
Cc1c(C(=O)Nc2nnc(SCc3ccccc3F)s2)oc2ccccc12	12%	32
O=S1(=O)c2cccc3cccc(c23)N1Cc1cccc(Cl)c1	-24%	-17
CCOC(=O)c1cnc2cc(OC(=O)c3ccccc3)nn2c1C	0%	-3
COc1ccc(NC(=S)Nc2ccccc2Sc2ccc(Cl)cc2)cc1OC	10%	-1
O=C(NNC(=S)NCC1CCCO1)c1cc(Br)ccc1Cl (centres undefined)	16%	-1
CC(C)(C)OC(=O)COc1cc2oc(=O)cc(-c3ccccc3)c2cc1Cl	2%	-4
c1cncc(CNc2ccc3c(c2)oc2ccccc23)c1	19%	1
Cc1cc(C)c(C#N)c(SCC(=O)NC(C)c2ccccc2)n1 (centres undefined)	-10%	-1
O=C(COc1cccc(NC(=O)C(F)(F)C(F)F)c1)N1CCOCC1	22%	0
O=C1CCCC2=C1C(c1ccc(Cl)cc1)C1C(=O)c3ccccc3C1=N2 (centres undefined)	4%	3
CCOC(=O)c1sc2nc(C)cc(C)c2c1N(C(C)=O)C(C)=O	12%	-11
Fc1ccc(OCCCN2CCCCC2)cc1	8%	8
CCOc1ncnc2ccc(Br)cc12	-8%	-4
COc1ccccc1CNC(=O)NC12CC3CC(CC(C3)C1)C2	-10%	-9
CCCCCOC(=O)Nc1ccc(S(=O)(=O)Nc2ccccc2Cl)cc1	42%	16
CCOC(=O)N1CCN(C(=O)c2ccc(N(C)S(C)(=O)=O)cc2)CC1	-13%	-8
Fc1ccccc1-c1nc(-c2cnc3ccccc3c2)c(-c2cccs2)[nH]1	-30%	-13
Oc1ccc(Cl)cc1-c1nnc(-c2cc(Cl)ccc2O)o1	-7%	-8
Cc1cccc(C(=O)Nc2ccc(C)cc2Br)c1	4%	-4
COc1ccc(CCNC(=O)c2ccc(-c3cccc(Cl)c3)o2)cc1OC	-6%	-2
Fc1ccccc1N1CCN(C2CCN(CC3CC4C=CC3C4)CC2)CC1 (centres undefined)	-7%	-3
Cc1onc(-c2ccccc2)c1C(=O)N1CCN(C(=O)c2ccco2)CC1	-3%	-4
CC(=O)CC(c1ccc(Br)cc1)c1c(O)c2ccccc2oc1=O (centres undefined)	13%	0
SMILES	V. cholerae motility	V. cholerae motility viability
O=S(=O)(NC12CC3CC(CC(C3)C1)C2)c1ccc(NC(=S)NCc2ccco2)cc1	-4%	30
NC(=O)C1(Nc2ccccc2)CCCCC1	-11%	-9
CC(=O)c1cc(C(=O)Nc2ccc(I)cc2)oc1C	14%	1
CC1CC(C)CN(CC(O)COCC2COc3ccccc3O2)C1 (centres undefined)	10%	2
NC(=O)C1CCN(Cc2nc3ccccc3c(=O)[nH]2)CC1	-16%	-4
Cc1ccc(S(=O)(=O)CCOc2nc3c(C(F)(F)F)cc(C4CC4)nc3o2)cc1	7%	-4
C=CCN(c1ccc(C(=O)Nc2ccc(CSc3ccccc3)cc2C)cc1)S(C)(=O)=O	7%	6
O=C(Nc1cccc(NC(=O)c2ccccc2Br)c1)c1cccs1	19%	5
CSc1ccc(S(=O)(=O)Nc2cccc(CCc3ccccn3)c2)cc1	16%	8
COc1cc(CNC23CC4CC(CC(C4)C2)C3)c(Cl)cc1OCC(=O)O	0%	-5
Fc1ccc(CN2CCN(Cc3ccccn3)CC2)cc1	-3%	0
Cc1ccc(NS(=O)(=O)c2ccc(Br)s2)cc1S(=O)(=O)N1CCOCC1	14%	21
O=C(NCc1ccccn1)c1ccc(CNS(=O)(=O)c2cccc(C(F)(F)F)c2)cc1	4%	-6
CCN1CCN(C(=S)c2ccc(OCC(=O)NCc3ccccc3)cc2)CC1	4%	-5
CC(=O)Oc1c(C2=NN(C(C)=O)C(c3ccc(Cl)cc3Cl)C2)ccc2ccccc12 (centres undefined)	9%	18
Cc1nnc(SCC(=O)N=C2NC(=O)CS2)s1	6%	0
CCN(CC)CCN(C)C(=O)Nc1ccc(NC(=O)N(C)CCN(CC)CC)cc1	20%	19
CCNc1nc(OCCNC(=O)Nc2ccccc2)nc(N(C)C)n1	9%	0
Cc1ccc(C(=O)Nc2cc(C#N)c3[nH]c4ccccc4n3c2=O)cc1	-3%	-3
COc1cc2c(cc1/C=C/[N+](=O)[O-])OC(C)C2 (centres undefined)	88%	30
CCOc1ccc(C(=O)Nc2nc(C)cc(C)n2)cc1Br	20%	28
CS(=O)(=O)N(CC(=O)NCCSCc1cccc(Cl)c1)c1ccc2c(c1)OCO2	-18%	-7
Cc1cc(C2C(C#N)=C(N)SC(N)=C2C#N)c(C)s1	25%	7
Cc1ccc(Nc2ncc(C(=O)Nc3ccccc3C)c(C)n2)cc1	11%	21
CC(C)(C)c1ccc(C(=O)CSc2ncn[nH]2)cc1	5%	-7

Among those listed so far, these contain fluorine:
SMILES	V. cholerae motility	V. cholerae motility viability
O=c1cc(-c2ccc(F)cc2)c2c([nH]1)Oc1c(nc(-c3ccccc3)[nH]c1=O)O2	10%	1
N#Cc1c(Nc2ccc(F)cc2)sc2c(O)cc(=O)[nH]c12	0%	-3
O=C(CCN1C(=O)c2cccc3cccc(c23)C1=O)N1CCN(c2ccccc2F)CC1	6%	34
N#Cc1nc(COc2ccccc2F)oc1N1CCN(C(c2ccccc2)c2ccccc2)CC1	-11%	-9
COc1ccc(CNCCC(c2ccc(F)cc2)c2ccco2)cc1OC (centres undefined)	18%	6
COc1ccccc1NS(=O)(=O)c1ccccc1F	5%	0
O=C(Nc1cccc(C(F)(F)F)c1)Nc1ccc2c(c1)OCCO2	-4%	-8
O=C(Nc1cc(C(F)(F)F)ccc1Cl)c1ccc2nc[nH]c2c1	-31%	-13
Cc1c(C(=O)Nc2nnc(SCc3ccccc3F)s2)oc2ccccc12	12%	32
O=C(COc1cccc(NC(=O)C(F)(F)C(F)F)c1)N1CCOCC1	22%	0
Fc1ccc(OCCCN2CCCCC2)cc1	8%	8
Fc1ccccc1-c1nc(-c2cnc3ccccc3c2)c(-c2cccs2)[nH]1	-30%	-13
Fc1ccccc1N1CCN(C2CCN(CC3CC4C=CC3C4)CC2)CC1 (centres undefined)	-7%	-3
Cc1ccc(S(=O)(=O)CCOc2nc3c(C(F)(F)F)cc(C4CC4)nc3o2)cc1	7%	-4
Fc1ccc(CN2CCN(Cc3ccccn3)CC2)cc1	-3%	0
O=C(NCc1ccccn1)c1ccc(CNS(=O)(=O)c2cccc(C(F)(F)F)c2)cc1	4%	-6
